Arbovirus anti: blocks arbovirus infection | arbovirus infection cell-based antiviral screen | inhibition, % at 10 µM | 0.37% of 200,000 active | AID 1251;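 active = inhibition from about 30%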;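 note: bluetongue infection of BSR cells; cell survival read as ATP light after 72 h; 0% = infected wells without compound and 100% = uninfected wells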
Mtb H37Rv: M. tuberculosis H37Rv growth inhibitors, H37Rv strain (AID 1626) | M. tuberculosis H37Rv growth inhibition; higher % means a stronger effect | inhibition, % at 10 µM; hits with a dose series show IC50 in µM | 0.95% of 220,000 active;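 active = confirmed in a dose series; inconclusive = inhibition above 80% but not taken into the dose series; inactive = below 80% or under 30% at every dose of the series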;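 note: bacteria incubated seven days before Alamar blue readout; 0% = bacteria only wells and 100% = bacteria with antibiotic wells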
Mtb bLac sens: beta-lactam sensitization of Mtb H37Rv. M. tuberculosis H37Rv growth with meropenem, percent inhibition; hits of this screen are not shown here. inhibition, % at 25 µM. 0.27% of 330,000 active. AID 434955;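 active = about 74% or more and at least 40 points above the plate without the antibiotic, then above 30% in a dose series; inconclusive = first-round hits that could not be retested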;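 note: growth measured after seven days incubation then overnight dye step; 0% = bacteria only wells and 100% = bacteria with antibiotic; twin plates without the antibiotic show which effects depend on it; some results filed as inactive read as strong as hits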
YopH inh: YopH (Yersinia) phosphatase inhibition | fluorescence Ex485/Em525 | inhibition, %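 (about 10 µM by stock and volumes)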 | 0.16% of 140,000 active | AID 898;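 active = inhibition of 50% or more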;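 note: controls were vehicle for no effect and minimum signal wells for full effect; inactives centre near -20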
RecA intein inh: inhibitors of M. tuberculosis RecA intein splicing. inhibition, %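 (about 9 µM by stock and volumes)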. cell-free RecA intein splicing, fluorescence. 0.75% of 290,000 active. P9WHJ3; in the data active = inhibition above about 30%; inconclusive = no clear call, values can overlap the other calls;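 note: 0% = vehicle wells and 100% = reference inhibitor control wells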
Target sequence (P9WHJ3 whole entry, looked up): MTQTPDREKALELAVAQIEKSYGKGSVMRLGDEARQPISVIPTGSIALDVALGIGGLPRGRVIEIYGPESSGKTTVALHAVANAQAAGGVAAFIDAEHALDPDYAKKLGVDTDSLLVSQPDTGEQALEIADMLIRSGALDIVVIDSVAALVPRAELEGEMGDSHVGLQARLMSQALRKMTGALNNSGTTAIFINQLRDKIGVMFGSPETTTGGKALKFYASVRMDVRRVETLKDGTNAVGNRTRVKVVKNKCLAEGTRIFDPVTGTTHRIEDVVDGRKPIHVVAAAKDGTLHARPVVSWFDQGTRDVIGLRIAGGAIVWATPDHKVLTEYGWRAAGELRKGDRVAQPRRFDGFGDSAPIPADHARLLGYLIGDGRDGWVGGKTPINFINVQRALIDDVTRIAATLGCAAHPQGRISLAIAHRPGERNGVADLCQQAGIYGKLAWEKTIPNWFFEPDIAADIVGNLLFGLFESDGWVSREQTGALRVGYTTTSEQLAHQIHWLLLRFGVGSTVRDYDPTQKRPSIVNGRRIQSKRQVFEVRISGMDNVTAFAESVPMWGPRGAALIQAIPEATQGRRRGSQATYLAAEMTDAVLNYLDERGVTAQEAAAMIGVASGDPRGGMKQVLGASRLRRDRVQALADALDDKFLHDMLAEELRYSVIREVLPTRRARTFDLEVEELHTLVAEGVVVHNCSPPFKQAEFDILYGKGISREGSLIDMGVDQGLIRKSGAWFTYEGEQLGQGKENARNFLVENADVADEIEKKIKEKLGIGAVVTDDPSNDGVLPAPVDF
Arbovirus anti repeat: also measured in Arbovirus anti; calls as there; inhibition, %; measured here: 10K subset replicate screen; many hits read low in the repeat;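 first of two repeat runs on a subset; 0% = infected and 100% = uninfected wells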
An asterisk follows results filed as active; ? = inconclusive; · = not tested or not shown; & = joins results of further samples. An excerpt; rates above refer to the full screens.

SMILES	Arbovirus anti	Mtb H37Rv	Mtb bLac sens	YopH inh	RecA intein inh	others
O=C(NCc1nnc(SCC(=O)N2CCc3ccccc32)o1)c1cccs1	21.7	0.4%	-7.5	·	-2.1
N#Cc1ccc(Oc2cccc(C(=O)O)c2)cc1C#N	3.0	-8.8%	-2.7	-40.2	5.7	Arbovirus anti repeat=0.5
CC(C)[C@H](NC(=O)[C@@H]1Cc2c([nH]c3ccccc23)C2c3ccccc3C(=O)N21)C(=O)NCC1CCCO1 (stereo not given in full)	·	·	-7.9	·	-1.6
Cc1cccc(-c2n[nH]c(=S)n2/N=C/c2ccco2)c1	·	-4.1%	-7.6	·	·
Cc1occc1C(=O)NCCCc1ccccc1	-0.9	-4.4%	-1.6	-16.9	4.4
CCN(CC)P(=O)(Nc1ccc(Br)cc1)c1c(C)nn(CCC#N)c1NC(=O)c1ccc(Cl)cc1 (stereo not given)	·	·	6.4	·	2.7
Cn1c(=O)n(Cc2ccccc2)c(=O)c2c1nc1n2CCS1	4.6	-0.8%	-19.6	4.9	6.7
CCCOc1ccc(C(=O)CCC(=O)OCC(=O)Nc2ccc(Oc3ccccc3)cc2)cc1	-3.4	44.2%	-13.9	-25.9	0.8
Cc1nc2ccc(C(=O)N(C)CC3CCCN(CCc4ccc(Cl)cc4)C3)cc2[nH]1 (stereo not given)	·	·	12.4	·	0.1
Cc1ccccc1CC1(CO)CCCN(C(=O)c2ccc(F)cc2)C1 (stereo not given)	14.0	-2.7%	-6.1	·	-0.2
O=C(c1cc(F)c(F)cc1Cl)N1CCCCC1	-4.9	-3.7%	-2.6	-49.1	0.7	Arbovirus anti repeat=1.4
O=C(c1ccc(Cl)c(Cl)c1)N1CCC(O)(CN2CCOCC2)CC1	-2.3	3.5%	11.0	·	2.3
O=C(COC(=O)/C=C/c1cccc(F)c1)Nc1ccccc1	8.2	0.3%	13.6	·	-2.9
CC(=O)Oc1cccc(C(=O)Nc2ccc(NC(=O)c3cccs3)cc2)c1	·	·	14.2	·	5.4
CCCCn1c(=N)n(CC(O)COc2cccc(C)c2)c2ccccc21 (stereo not given)	-37.5	0.7%	?	-16.1	4.5
CN1CCN(/N=C/c2ccc(N(C)c3ccccc3)cc2)CC1	-0.6	3.9%	-7.7	·	3.6
O=C(CSc1nnc(NC(=O)c2ccc(F)cc2)s1)NCc1ccco1	·	·	-5.9	·	0.0
CC(OC(=O)CN1C(=O)NC2(CCCC2)C1=O)C(=O)c1ccc(C(C)(C)C)cc1 (stereo not given)	·	·	-2.1	·	1.4
O=C(Cc1ccc(Cl)c(Cl)c1)Nc1cccnc1	·	·	1.0	·	-1.6
O=[N+]([O-])c1cccc(-c2noc(COc3ccccc3)n2)c1	1.1	4.6%	-5.6	·	0.3
O=C(CN1C2CCCC1CC(NC(=O)C1CCCCC1)C2)Nc1ccccc1C(F)(F)F (stereo not given)	·	·	5.9	·	4.5
CN1CCN(C(CNS(=O)(=O)c2cccs2)c2cccnc2)CC1 (stereo not given)	6.0	-4.3%	-6.9	·	0.7
COc1ccc(N(C(=O)c2ccco2)C(C(=O)NC2CCCC2)c2ccccc2)cc1 (stereo not given)	·	·	6.7	·	0.8
COc1cccc(CNc2ccc(F)c(Cl)c2)c1OC	-4.2	9.3%	5.1	-25.4	1.6
O=C(c1ccccc1-c1ccccc1)N1CCN(c2ccccn2)CC1	-25.3	·	-0.7	0.1	3.2
O=C(NCc1ccccc1)C(c1ccccc1)N(C(=O)c1csnn1)C1CC1 (stereo not given)	6.6	-4.1%	-6.2	·	-0.4
COc1cc(C(=O)NCCc2cn3ccc(C)cc3n2)cc(OC)c1OC	-1.4	0.9%	-0.7	-52.4	9.5	Arbovirus anti repeat=-6.2
CC(=O)c1ccc(N(CC(=O)NC2CCCCC2)C(=O)CNC(=O)c2ccco2)cc1	·	·	3.2	·	1.3
COc1cccc(C(=O)Nc2sc3c(c2C(=O)O)CCCC3)c1	·	·	1.2	·	-2.5
O=C(Nc1ccccc1N1CCOCC1)C1CCN(S(=O)(=O)c2cccc(C(F)(F)F)c2)CC1	-1.0	0.9%	-8.2	-21.9	4.0
COc1ccc(CN2CCC(n3nccc3NC(=O)CCOc3ccccc3)CC2)cc1C	·	·	-0.7	·	-0.2
COCCNC(=S)N1CCN(c2cccc(C)c2C)CC1	-3.4	2.7%	1.0	·	2.1
CCCn1nc(C(=O)OCC(=O)c2ccccc2)c2ccccc2c1=O	1.6	1.4%	-2.3	·	-0.1
Cc1ccccc1N1Cc2ccccc2C1	0.5	-0.4%	6.1	-15.9	0.2
O=C(O)c1ccc(SCc2cnc(Cl)s2)cc1	10.1	0.8%	-7.5	-17.9	-2.5
Cc1cccn2c(=O)nc(SCC(=O)N3CCC(Cc4ccccc4)CC3)nc12	·	·	-3.1	·	2.7
CS(=O)(=O)CCSc1ncccc1C(=O)NCc1cccs1	·	-9.8%	4.9	·	0.3
CCOC(=O)c1csc(NC(=O)CSc2nnnn2-c2ccc3c(c2)OCCO3)n1	14.4	-7.7%	-10.6	34.7	·
O=C1CSC(c2ccccc2)N1c1ccc([N+](=O)[O-])cc1 (stereo not given)	·	·	-7.3	·	0.6
O=C(Cn1nnc(-c2ccccc2F)n1)NCc1ccco1	-3.5	6.3%	0.5	·	·
Cc1csc(SCC(=O)Nc2cc(C(C)(C)C)nn2-c2ccccc2)n1	0.6	-0.5%	3.1	-37.5	2.7
COc1ccc(-n2ncc3c2CC(C)(C)CC3NC(=O)c2ccnn2C)cc1 (stereo not given)	·	·	4.1	·	0.8
CCN1CCc2c(sc(NC(=O)c3cc4ccccc4cc3OC)c2C(N)=O)C1	·	·	96.9	·	-1.4
Cc1cccc(NC(=O)C(=O)NCCCN2CCOCC2)c1	-0.9	-7.4%	-0.2	·	-4.3
CCOC(=O)c1c(C)[nH]c(C)c1S(=O)(=O)N1CCN(c2ccc([N+](=O)[O-])cc2)CC1	·	·	-8.2	·	-2.5
Cc1cc(=O)oc2cc(O)c(N=Nc3ccccc3)cc12	·	38.5%	73.0	·	-5.4
O=C1C2C3C=CC(CC3)C2C(=O)N1c1ccccc1 (stereo not given)	·	·	3.9	·	0.1
CN(C(=O)Cn1nnc2ccccc2c1=O)C1CCCCC1	·	·	-2.0	·	-2.8
COCCn1c(SCC(=O)NC2CCCC2)nnc1-c1ccco1	·	·	-5.4	·	-0.7
COc1cccc(N/N=C(\C#N)S(=O)(=O)C(C)(C)C)c1	11.0	-1.4%	-6.2	·	3.0
COc1ccc(/C=N/NC(=O)c2nn(-c3ccccc3)c(=O)c3c(N)scc23)cc1	-7.4	-16.7%	-5.3	12.6	67.7*
Cc1cccc(C)c1NC(=S)N1CCCN(Cc2ccc(F)cc2)C1	-5.9	-7.9%	4.7	·	4.0
COc1ccc(CNC(=O)CCCc2ccccc2)cc1	-9.8	2.9%	-10.3	-22.4	-1.0
CCOc1ccc(S(=O)(=O)NCCCN2CCCC2=O)cc1	9.1	8.2%	2.8	·	-1.9
COc1ccc(C(=O)NCCc2ccccc2)cc1OC	·	·	-0.4	·	0.1
CCOC(=O)c1c(C)n(C)c2cc(-c3cccc(C(F)(F)F)c3)c(O)cc12	-0.7	-8.7%	1.7	-19.7	-0.8
O=C(NC1CCC(C(=O)O)CC1)OCc1ccccc1 (stereo not given)	5.3&-1.8	-0.9%&-0.5%	-5.2&-9.4	-31.0&-2.1	-2.5&-1.4
CS(=O)(=O)N1N=C(c2cccs2)CC1c1ccccc1F (stereo not given)	-0.4	-4.3%	-0.2	·	-2.7
CCCCn1nc2cc(C(=O)NCc3ccco3)ccc2c1OCC	5.3	-5.7%	-4.4	-35.9	-0.9
CC1(C)Cc2c(sc3c2c(=N)n(Cc2ccco2)c(=O)n3CC(=O)Nc2cccc(Cl)c2)CO1	5.8	16.2%	63.7	19.1	-3.0	Arbovirus anti repeat=0.3

Brought forward from above: 2 compounds; new compounds follow.
SMILES	Arbovirus anti	Mtb H37Rv	Mtb bLac sens	YopH inh	RecA intein inh	others
CCCCn1nc2cc(C(=O)NCc3ccco3)ccc2c1OCC	5.3	-5.7%	-4.4	-35.9	-0.9
CC1(C)Cc2c(sc3c2c(=N)n(Cc2ccco2)c(=O)n3CC(=O)Nc2cccc(Cl)c2)CO1	5.8	16.2%	63.7	19.1	-3.0	Arbovirus anti repeat=0.3
O=C(COc1ccc(F)cc1F)Nc1cccnc1	·	·	-6.9	·	0.7
CCn1ccc(C(=O)NCCCN2CCCC2=O)n1	·	·	-3.8	·	1.2
CC(=O)N(Cc1ccc(F)cc1)Cc1nc2ccccc2c(=O)[nH]1	-5.5	-4.2%	-3.4	·	1.8
O=C(Nc1cccc(S(=O)(=O)N2CCCCC2)c1)C1CCC1	·	·	-14.9	·	0.7
CSCCC(NC(=O)/C(=C\c1ccc(Cl)cc1)NC(=O)c1ccccc1)C(=O)O (stereo not given)	-0.6	-5.4%	-4.8	·	-0.7
O=C(c1ccc(S(=O)(=O)N2CCOCC2)cc1)N(c1ccccc1)C1C=CS(=O)(=O)C1 (stereo not given)	5.7	-3.9%	5.3	-24.0	-2.0
O=C(CSc1ccc2nnc(-c3ccccn3)n2n1)Nc1ccc(F)cc1F	·	·	?	·	1.2
O=C(CN1CC(=O)Oc2ccccc21)OCC(=O)c1ccc(F)cc1	5.8	1.1%	11.1	·	1.8
Cn1c(SCC(=O)Nc2cccnc2)nnc1-c1ccccc1F	21.9	-6.4%	-2.0	·	-0.4
C=CCn1c(SCC(=O)Nc2ccccc2)nnc1-c1cccc(S(=O)(=O)N2CCOCC2)c1	1.4	5.2%	-2.7	-20.0	2.5
CCOC(=O)c1cn[nH]c1NC(=S)Nc1ccc(OC)cc1	·	9.0%	1.5	·	1.5
CCC(C)Cn1c(C(C)C)nc2ccccc21 (stereo not given)	8.3	-2.1%	-10.7	·	-1.9
Cc1ccc(-c2nnc(SCC(=O)N/N=C/c3ccccc3C(=O)O)n2C2CCCCC2)cc1	·	·	0.0	·	0.5
Nc1cn(C2OC(CO)C(O)C2O)c(=O)[nH]c1=O (stereo not given)	·	·	-7.0	·	-1.2
O=C(NCc1ccncc1)Nc1cccc([N+](=O)[O-])c1	6.9	-6.4%	2.8	·	-2.3
CCN(CC)C(=O)Cn1cnc2sc(C(=O)Nc3cc(OC)c(OC)c(OC)c3)c(C)c2c1=O	5.1	-10.8%	2.1	-10.1	1.2
COc1ccc(Br)cc1S(=O)(=O)n1ccnc1C	1.9	11.5%	-10.6	7.5	-0.4
CCOc1c2ccc(C(=O)NCc3ccc4c(c3)OCO4)cc2nn1C	-6.3	-13.6%	9.2	-35.0	-3.6
Cc1n[nH]c(C)c1S(=O)(=O)N1CCCC(C(=O)NC2CCCc3ccccc32)C1 (stereo not given)	3.1	-3.0%	-4.1	-30.5	2.1
CCC(NC(=S)NCc1ccccc1)C(=O)O (stereo not given)	4.0	-1.2%	-10.9	-36.8	1.3
O=C(Nc1cnn(Cc2ccc(F)cc2)c1)c1cc(-c2cccs2)on1	-39.4	-0.2%	-7.1	-13.1	3.2
Cc1ccc(N(C)C(=O)Oc2cccc3cccnc23)cc1	1.2	-6.3%	-8.3	11.8	-1.5
O=C(CCN1C(=O)[C@@H]2Cc3ccccc3CN2C1=O)NCc1ccc(Cl)cc1	·	·	1.3	·	1.5
CCN(CC)CCCNC(=O)C1c2ccccc2C(=O)N(C)C1c1ccc(OC)cc1 (stereo not given)	-1.3	-7.3%	-9.4	-20.6	-1.2	Arbovirus anti repeat=3.8

For convenience, two of the compounds above.
SMILES	Arbovirus anti	Mtb H37Rv	Mtb bLac sens	YopH inh	RecA intein inh	others
Cc1ccc(-c2nnc(SCC(=O)N/N=C/c3ccccc3C(=O)O)n2C2CCCCC2)cc1	·	·	0.0	·	0.5
Nc1cn(C2OC(CO)C(O)C2O)c(=O)[nH]c1=O (stereo not given)	·	·	-7.0	·	-1.2

Next records.
SMILES	Arbovirus anti	Mtb H37Rv	Mtb bLac sens	YopH inh	RecA intein inh	others
COC(C/C=C/[C@@H](O)[C@H](C)OCc1ccccc1)OC	·	-4.8%	-6.5	·	1.1
Cc1cc(C)nc(NS(=O)(=O)c2ccc(NC(=O)c3cccs3)cc2)n1	10.0	3.1%	7.9	-48.2	2.0	Arbovirus anti repeat=1.4
COC(=O)CNC(=O)c1cc(-c2ccncc2)nc2ccc(C)cc12	·	·	-6.6	·	1.1
Cc1cccc(CSc2ncnc3nc[nH]c23)c1	-40.9	10.5%	-2.3	-4.4	-1.1
Cc1cc(C)n(-c2cc(C(=O)O)cc(C(=O)O)c2)n1	1.7	-5.7%	-1.8	·	-2.2
O=C(Nc1ccccc1Oc1cccnc1)C1CCCN(C/C=C/c2ccccc2)C1 (stereo not given)	·	·	-1.6	·	1.8

Looked up by compound from above (two):
SMILES	Arbovirus anti	Mtb H37Rv	Mtb bLac sens	YopH inh	RecA intein inh	others
O=C(Nc1ccccc1Oc1cccnc1)C1CCCN(C/C=C/c2ccccc2)C1 (stereo not given)	·	·	-1.6	·	1.8
COC(=O)CNC(=O)c1cc(-c2ccncc2)nc2ccc(C)cc12	·	·	-6.6	·	1.1

Screening results from PubChem.
